# High-throughput results (PubChem)
# CtBP-E1A blk: blocks the CtBP interaction with E1A | AlphaScreen GST-E1A/His-CtBP binding, 1536-well; stronger effect = lower value; control for the full effect not named in the record | AID 651724 | activity change, % (no concentration beside the values) | 340,000 compounds, 0.49% hits; in the data active means activity change below about -65%; inconclusive means about -30% to -65%; inactive means above about -30%; further: on the % scale 0 is the no-effect control and ±100 the full control effect
#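 Homogeneous bead-based format: GST-tagged E1A captured on glutathione donor beads, His-tagged CtBP on nickel acceptor beads; compounds precede bead addition by 2 h at 37 °C.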
# Six1-Eya2 blk: blocks human Six1 binding to Eya2; AID 651725; 360,000 compounds, 0.56% hits; activity change, % (concentration not given with the values); AlphaScreen GST-Six1/His-Eya2 binding, biochemical; stronger effect = lower value; control for the full effect not named in the record; Q15475+O00167; in the data active = activity change below about -65%; inconclusive = about -30% to -65%; inactive = above about -30%; further: on the % scale 0 is the no-effect control and ±100 the full control effect
# Target sequence (O00167 whole entry, looked up): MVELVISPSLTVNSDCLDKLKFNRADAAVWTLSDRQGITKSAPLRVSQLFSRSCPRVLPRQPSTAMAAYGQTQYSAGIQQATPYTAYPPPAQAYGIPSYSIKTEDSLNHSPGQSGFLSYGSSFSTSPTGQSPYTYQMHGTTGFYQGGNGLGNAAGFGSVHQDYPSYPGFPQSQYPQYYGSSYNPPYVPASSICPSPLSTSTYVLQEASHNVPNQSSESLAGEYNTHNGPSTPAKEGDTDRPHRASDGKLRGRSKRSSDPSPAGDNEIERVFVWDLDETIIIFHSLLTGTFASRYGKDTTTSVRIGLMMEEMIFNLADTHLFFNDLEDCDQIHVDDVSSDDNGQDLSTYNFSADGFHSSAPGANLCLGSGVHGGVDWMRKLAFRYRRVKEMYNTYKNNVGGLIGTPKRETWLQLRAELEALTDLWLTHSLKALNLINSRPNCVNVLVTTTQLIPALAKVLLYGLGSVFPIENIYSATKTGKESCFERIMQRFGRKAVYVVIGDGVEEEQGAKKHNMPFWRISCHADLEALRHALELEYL
# Target sequence (Q15475 whole entry, looked up): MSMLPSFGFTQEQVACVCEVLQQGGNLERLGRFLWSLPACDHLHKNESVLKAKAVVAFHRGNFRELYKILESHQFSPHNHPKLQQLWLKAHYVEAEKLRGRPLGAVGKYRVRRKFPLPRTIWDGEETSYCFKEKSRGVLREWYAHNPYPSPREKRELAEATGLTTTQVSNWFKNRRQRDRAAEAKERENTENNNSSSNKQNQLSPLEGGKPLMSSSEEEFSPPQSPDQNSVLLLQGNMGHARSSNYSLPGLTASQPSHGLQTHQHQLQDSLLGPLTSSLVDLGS
#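 Compounds are tested against tagged Six1 and Eya2 proteins bridged by glutathione donor and nickel acceptor beads; after a one-hour incubation at 37 °C without light, AlphaScreen emission is recorded.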
# PINK1 expr mod: PINK1 expression modulation | 410,000 compounds, 0.2% hits | Potency, µM (highest dose often 76.6 µM), for the others: at the top dose activation (PINK1 increase), most hits filed as activators | PINK1 immunofluorescence, high-content cytometry, 24 h | AID 624263; active = well fitted activation curve with a large enough effect; inconclusive = small, poorly fitted or top-dose-only effect; inactive = flat fitted curve, though single readings scatter; cell line not stated here;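 further: potency means the concentration at half of the fitted maximal effect; % of control where 0% means no effect; nearly all actives have a fitted effect of over 65% in size; a mitochondrial uncoupler was the plate control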
#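 Stable cell line treated 24 h with compounds at 5 concentrations (CCCP controls), then fixed and immunostained for PINK1 plus nuclear and cell stains; PINK1 immunofluorescence quantified by laser-scanning microplate cytometry.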
# TRPML1 agonist: agonists of human TRPML1 channel; Q9GZU1; TRPML1-expressing cells, Ca2+ dye fluorescence, FDSS; host cell line not named in the record; reference of the full effect not given here; activation, % (no concentration beside the values); 410,000 compounds, 0.12% hits; in the data active = activation above about 50%; inconclusive = about 30% to 50%; inactive = below about 30%; further: 0% is about no effect; the text of the record puts the active cut at 80%
#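 TRPML1-DL cells, Tet-induced overnight (~16 h, 37 degrees C), loaded 45-90 min at room temperature with Ca8 no-wash calcium dye plus quencher. FDSS fluorescence: 10 s baseline, compound pin-transfer, 110 s agonist read, then EC80 54-4 (4uM final) and 110 s antagonist read.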
# D2 potentiator: potentiates the human D2 dopamine receptor allosterically. 360,000 compounds, 0.23% hits. potentiation, % (concentration not given with the values). P14416. DiscoveRx D2 beta-arrestin cells, luminescence, 90 min; 100% = 57 uM dopamine signal; active = potentiation of 50% or more; inconclusive = 30% to 50%; inactive = 30% or less;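 further: tested on top of an EC20 dose of dopamine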
#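 PathHunter beta-arrestin assay in DiscoveRx D2 cells. Compounds were added with an EC20 of dopamine (50 nM final) for 90 min at 37 deg C. Luminescence was read 1 h after detection reagent, with 57 uM dopamine as the EC100 control.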
# D2 ag: human D2 receptor agonism in beta-arrestin assay; DiscoveRx PathHunter D2 beta-arrestin, luminescence, 90 min; 100% = 57 uM dopamine signal; 360,000 compounds, 0.084% hits; activation, % (no concentration beside the values); P14416; in the data active = activation above about 40%; inconclusive = about 15% to 40%; inactive = below about 15%; further: compound concentration not given in the record; the text of the record calls up to 30% inactive
#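 Agonist mode: compounds alone added to overnight-plated D2 PathHunter cells for 90 min at 37 C, with 57 uM final dopamine (EC100) defining full response. Beta-arrestin recruitment detected by chemiluminescent reagent, read after 1 h at ambient temperature.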
# An asterisk follows results filed as active; ? = inconclusive; . = no result given; & = joins results of further samples; [ ] = dose if it differs, or a comment.
# Order of values – CtBP-E1A blk	Six1-Eya2 blk	PINK1 expr mod	TRPML1 agonist	D2 potentiator	D2 ag
> Cc1ccc(C2=NC3(CCCCCC3)NC2=S)cc1
 : 3.5	2.1	-2.3%	-0.9	-3.6	-4.7
> COc1cccc(-c2ccc(NC(=O)C3CCCN(Cc4ccccn4)C3)cc2)c1 (configuration not stated)
 : -1.1	-9.3	1.7%	-0.7	-18.2	0.0
> CCOC(=O)C1(CC2CC2)CCN(Cc2cnc(-c3ccc(OC)cc3)nc2)CC1
 : .	-5.4	1.6%	2.1	-22.2	0.6
> COCC1CCN(C(=O)c2ccc3nc(Cc4cccc(Cl)c4)oc3c2)CC1
 : -17.5	25.4	0.3%	0.7	-15.5	-3.6
> O=C(O)CCC(=O)Nc1ccc(SSc2ccc(NC(=O)CCC(=O)O)cc2)cc1
 : 0.8	-2.9	-1.7%	-1.0	-26.3	-13.6
> COc1ccc(OC)c(NC(=O)CSc2nnc(CNC(=O)c3ccccc3F)o2)c1
 : -11.1	4.9	3.6%	-0.6	-11.4	2.5
> S=c1[nH]nc(-c2ccccc2)n1/N=C/c1ccc(Cl)cc1
 : .	-17.2	4.0%	0.0	-16.7	7.9
> CC1CC(C)CN(S(=O)(=O)c2cccc(C(=O)N3CCN(c4ccc(F)cc4)CC3)c2)C1 (configuration not stated)
 : -5.2	-10.9	0.4%	0.1	-1.7	1.4
> CCN(CC)c1ccc(CNc2nc3ccccc3n2CCN2CCOCC2)cc1
 : -19.2	-21.6	?	-0.8	-17.2	-2.2
> Cn1c(O)c(N=NC(=O)c2ccccc2O)c2ccccc21
 : .	-14.2	2.0%	-0.3	-11.7	-4.6
> Cc1cc(N2CCN(C)CC2)nc(=S)[nH]1
 : 7.6	1.7	-0.3%	-0.4	-15.7	-0.1
> O=C(CCN1C(=O)/C(=C/c2cccs2)SC1=S)N1CCCCC1
 : -15.1	-17.7	0.5%	0.4	-2.5	0.8
> COc1cc([N+](=O)[O-])ccc1NC(=O)NNC(=O)c1sccc1C
 : -1.4	-2.1	-0.4%	1.7	-20.7	-6.2
> CCSC1=N/C(=C\c2ccc(OC)cc2)C(=O)N1
 : 12.9	-9.5	2.0%	0.2	-23.8	-2.1
> CCNC(=S)N1CCN(CCN2C(=O)c3cccc4cccc(c34)C2=O)CC1
 : 20.5	-3.3	-0.4%	-1.2	10.0	0.5
> Cc1cc(NC(=O)c2ccccc2)ncc1NC(=O)c1ccco1
 : -2.6	-3.0	-0.4%	0.9	-4.2	-1.8
> Cc1snc(SCC(=O)c2ccc(Cl)cc2)c1C#N
 : 25.3	20.6	0.1%[38.3 µM]	1.8	-19.9	0.8
> O=C(CSC1=NS(=O)(=O)c2cc(F)ccc2N1)NCCc1ccccc1
 : 3.6	5.0	-1.2%	-0.5	-19.3	-4.9
> O=C(c1ccccc1)c1c[nH]cc1-c1ccccc1
 : -6.0	-3.6	5.9%[38.3 µM]	0.4	-2.9	-3.0
> Clc1ccc(CO/N=C/c2c(-c3ccccc3)nc3n2CCS3)c(Cl)c1
 : -12.3	-22.5	12.3%	-0.3	-12.4	-3.9
> CC1CC1C(=O)OCC(=O)Nc1ccc(Cl)cn1 (configuration not stated)
 : .	-6.0	1.0%	-0.8	-3.9	-2.3
> COc1cc(-c2cc(C(=O)Nc3ccc(C)c(S(=O)(=O)N4CCOCC4)c3)c3ccccc3n2)cc(OC)c1OC
 : -1.2	0.4	2.9%	0.0	10.6	3.4
> O=C(Cn1cnnn1)Nc1cccc([N+](=O)[O-])c1
 : -6.5	-11.5	-1.0%	0.7	-3.1	-4.1
> Cc1ccc(S(=O)(=O)N2CCC(=O)N2)cc1
 : -6.2	4.9	-1.1%	0.7	-15.3	-2.9
> CCN1CCN(C(=O)c2cnn3c(C(F)F)cc(-c4ccc(C)cc4)nc23)CC1
 : 3.1	-5.4	.	0.5	-38.1	0.7
> Clc1nc2sccn2c1/C=N/n1cnc2ccccc21
 : 12.0	-27.7	-7.0%[38.3 µM]	-0.4	-6.5	0.0
> CN(C(=O)CC(=O)Nc1ccc(Cl)c(Cl)c1)c1ccccc1
 : 16.8	0.6	-1.8%	0.0	-35.6	-2.6
> Cc1cccc(N2CCN(C(=O)c3ccc4c(c3)c(C)c(C)n4C)CC2C)c1 (configuration not stated)
 : ?	?	4.2%&1.8%	-0.7&2.7	2.9	-1.2
> Cc1ccccc1OCC(=O)NCCN1CCCC1
 : -0.8	-0.8	-1.7%	0.1	-26.7	-4.7
> COC(=O)c1c(NC(=O)CSc2nc3ccccc3c(=O)n2Cc2ccco2)sc(C)c1C
 : 2.3	-7.2	7.4%	-0.9	-3.0	0.8

# Brought forward from above: 5 compounds, then new ones.
# Order of values – CtBP-E1A blk	Six1-Eya2 blk	PINK1 expr mod	TRPML1 agonist	D2 potentiator	D2 ag
> Clc1nc2sccn2c1/C=N/n1cnc2ccccc21
 : 12.0	-27.7	-7.0%[38.3 µM]	-0.4	-6.5	0.0
> CN(C(=O)CC(=O)Nc1ccc(Cl)c(Cl)c1)c1ccccc1
 : 16.8	0.6	-1.8%	0.0	-35.6	-2.6
> Cc1cccc(N2CCN(C(=O)c3ccc4c(c3)c(C)c(C)n4C)CC2C)c1 (configuration not stated)
 : ?	?	4.2%&1.8%	-0.7&2.7	2.9	-1.2
> Cc1ccccc1OCC(=O)NCCN1CCCC1
 : -0.8	-0.8	-1.7%	0.1	-26.7	-4.7
> COC(=O)c1c(NC(=O)CSc2nc3ccccc3c(=O)n2Cc2ccco2)sc(C)c1C
 : 2.3	-7.2	7.4%	-0.9	-3.0	0.8
> O=S1(=O)N=C(N/N=C/c2cccs2)c2ccccc21
 : ?	?	1.1%	5.1	-4.1	2.4
> COc1cccc(C(=O)N2CCN(C(=O)COc3ccc4ccccc4c3)CC2)c1
 : -2.5	-7.5	0.4%	0.6	-6.4	2.3
> O=C1CC(c2ccccc2)CC(O)=C1C=Nc1ccccc1O (configuration not stated)
 : .	0.5	1.3%	0.5	-6.0	1.2
> O=C1NC(=O)C(=Cc2ccccc2)N1
 : 7.2	0.9	-0.7%	-0.9	-3.6	-2.7
> Cc1cc2nc(-c3ccc(SCC(=O)Nc4ccc(S(=O)(=O)NC5CC5)cc4)nc3)[nH]c2cc1C
 : 9.6	-9.4	16.0%	1.8	4.7	5.1
> CC1CN(C(=O)COc2ncnc3ccccc23)CC(C)O1 (configuration not stated)
 : -1.9	4.6	-1.2%	-0.5	-0.4	0.9
> COc1ccc(NC(=O)CC2C(=O)NC3CCCCC3N2C(=O)c2ccc(F)cc2)cc1 (configuration not stated)
 : -3.4	-15.1	-0.5%	0.2	4.3	2.6
> CNC(=O)CSc1nc2ccccc2c(=O)n1C1CCCCC1
 : .	6.0	0.0%	-0.4	-0.1	-1.0
> Cn1c(C(=O)NCc2cccs2)cc2oc3ccccc3c21
 : -14.2	-21.8	0.4%	0.7	18.5	0.5
> O=S(=O)(c1ccc(F)cc1)c1nc(-c2ccccc2)oc1N1CCOCC1
 : 11.9	-0.9	-0.5%	1.6	-17.4	-4.8
> COc1cc(C(=S)NCc2ccccc2)cc(Br)c1O
 : -26.7	?	1.5%	-0.7	-11.6	-2.9
> Cc1ccccc1-c1csc(C(O)c2cccnc2)n1 (configuration not stated)
 : 2.2	7.4	-0.8%	-1.1	-1.6	6.8
> CCOc1ccccc1NC(=O)c1cc(C(=O)Nc2ccccc2OCC)cc(N2C(=O)CCC2=O)c1
 : 1.8	-1.9	6.5%	0.5	5.2	-3.3
> CC(=O)Nc1nc2cc3c(cc2s1)OCCO3
 : -5.5	3.8	4.8%	-0.1	-10.8	-5.2
> Cc1ccc(C(=O)NCc2ccco2)cc1S(=O)(=O)Nc1cccc(C)c1C
 : -22.6	-16.3	9.5%[38.3 µM]	1.5	-2.9	-4.6
> CC1(C)CC2CC(C)(CN2C(=O)C23CCC(C)(C(=O)C2)C3(C)C)C1 (configuration not stated)
 : 1.8	-2.3	5.4%	-0.5	-11.4	-8.2
> CN1CCN(c2ccc(S(=O)(=O)N3CCCCC3)cc2N)CC1
 : 8.8	5.6	1.9%	-0.4	-3.8	-1.4
> O=C(COC(=O)c1cccnc1Cl)Nc1nc(-c2ccccc2)cs1
 : -1.8	-3.6	9.0%	0.0	18.4	-2.1
> COC(=O)c1ccc(CN=C(NS(=O)(=O)c2ccccc2)c2ccccc2)cc1
 : -8.7	0.4	0.8%	2.0	-4.4	-0.2
> COc1ccc(NC(=O)CN(C)C(=O)C(Sc2ccccc2)c2ccccc2)cc1 (configuration not stated)
 : -4.4	-1.3	1.2%	2.4	1.4	3.9
> O=C(Cc1ccccc1)Nc1ccc(NC(=O)c2ccco2)cc1
 : -17.8	11.1	5.7%	-0.1	-1.1	-2.2
> COc1ccccc1NS(=O)(=O)c1cc(NC(=O)c2cc(=O)[nH]c3ccccc23)ccc1N1CCOCC1
 : .	4.4	-1.1%	0.8	-3.1	-4.4
> COc1ccccc1/C=N/NC(=O)c1csc(C)c1C
 : 0.9	2.7	2.0%	1.1	-5.2	-4.7
> O=C(c1[nH]c(C(F)(F)F)nc1-c1ccccc1)N1CCN(C(=O)C2CCCO2)CC1 (configuration not stated)
 : -3.5	-12.0	0.9%	-0.2	-2.4	-4.0
> Cn1c(=O)c2[nH]c(SCCN3CCOCC3)nc2n(C)c1=S
 : -26.3	-21.3	-0.5%	1.8	-8.1	1.0
> Cc1cc(NC(=O)CCN2CCC(C)CC2)ccc1Br
 : .	4.0	2.4%	0.1	-66.3	-3.3
> Cn1c(CNC(=O)c2ccco2)nnc1SCC(=O)c1ccc(F)cc1
 : 5.7	6.7	0.0%	-0.1	-1.3	-6.7
> C[C@H]1CN([C@@H](C)CO)C(=O)CCCn2nncc2CO[C@@H]1CN(C)Cc1cccc(C(=O)O)c1
 : 11.1	1.1	1.8%	-0.2	-7.7	-6.7
> CCNC(=S)N/N=C/c1ccc(-c2ccccc2)o1
 : -0.5	-5.7	2.3%	1.4	-1.9	-6.6
> Cc1c(NC(=O)c2cc(-c3ccc(Cl)cc3)on2)c(=O)n(-c2ccccc2)n1C
 : 1.0	-4.9	0.2%&1.4%	-1.5&1.1	-7.9	-4.9
> COc1ccc(Sc2ccc(/C=C3\C(=O)NN(c4ccccc4)C3=O)o2)cc1
 : 8.0	-10.3	0.6%	0.8	-6.2	-1.2
> O=C(c1ccccc1F)N(NC(=O)C(O)(c1ccccc1)c1ccccc1)c1ccccc1
 : -0.7	2.4	1.6%	0.5	-15.1	0.6
> COc1ccc(C2/C=C\CN(CC3CC3)CC(=O)N2Cc2ccc(F)cc2)cc1 (configuration not stated)
 : 23.2	21.2	-0.4%	2.4	-7.4	-1.4
> CCCN(CCC)CCCNC(=O)c1cn(C)c2ccc(S(=O)(=O)N(C)C3CCCCC3)cc2c1=O
 : -1.1	-0.9	0.2%	-0.4	-9.8	-2.9
> O=C(Nc1ccc(Cl)c(S(=O)(=O)N2CCCCC2)c1)C1=COCCO1
 : -23.6	2.8	3.6%	-0.4	9.7	-3.5
> CCOc1ccccc1N1CC(C(=O)NC2CCCCCC2)CC1=O (configuration not stated)
 : -0.3	-11.1	0.3%	0.0	-7.5	-1.8
> O=C1C(Cc2c[nH]c3ccccc23)NC(=S)N1Cc1ccccc1 (configuration not stated)
 : -17.7	-8.7	3.4%	0.8	-14.9	-3.9

# An unsorted share of the library, and some 1.3% of all compounds hit somewhere here.
